From PubChem
LT uptake inh = qHTS Assay for Anthrax Lethal Toxin Internalization. Cells, anthrax lethal toxin internalization, FRET ratio (460/530). Potency, µM (series often up to 40 µM), for the others: top-dose activity change, negative = inhibition, hits mostly inhibitors. hit rate 0.67% among 70,000; active = well fitted falling ratio curve with the 530 nm signal flat; inconclusive = other ratio curves, or a change in one channel alone; inactive = flat curves in the ratio and both channels; the % refers to the ratio; further: on the % scale 0 is the no-effect control and ±100 the full control effect; nearly all actives have a fitted effect of over 50% in size; tested in ME-180 cells; beta-lactamase reporter
SmPrx2 inh = Schistosoma Mansoni Peroxiredoxins (Prx2); S. mansoni Prx2 activity coupled to TGR/GSH (TGR is thioredoxin glutathione reductase), NADPH fluorescence loss, qHTS; some inactives read as strong as hits; Potency, µM; Schistosoma mansoni peroxiredoxin 2 (Prx2); hit rate 0.07% among 65,000; active means full or partial inhibition curve with a strong effect at the top dose; inconclusive means weaker partial or single-point curve; inactive means no accepted curve; further: series up to 57 µM; many of its hits are not listed in these tables
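Prx2 activity was followed as the loss of NADPH fluorescence (ex 365/em 450 nm), read every 30 sec for 8 min after H2O2 start. The enzyme mix (50 nM Prx2, 25 nM TGR, GSH, NADPH; pH 7.4 phosphate buffer) was incubated with compound for 15 min at room temperature first.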
Numbers without * were called inactive; ? = inconclusive; . = no result given; [ ] = remark or other dose. Potency means the concentration at half of the fitted maximal effect. These rows are one share of the data; the hit share may differ from the screen's.

SMILES	LT uptake inh	SmPrx2 inh
Cn1cc(CC(=O)Nc2cccc(C#N)c2)c2ccccc21	-21%	>57
COCCCn1c(SCC(=O)NC(C)C)nnc1-c1ccccc1	-3%	>57
CC(=O)N=C1SC2CS(=O)(=O)CC2N1c1cccc(Cl)c1Cl (centres undefined)	-2%	>57
Cc1ccc(-n2cnnn2)c2cccnc12	2%	>57
COc1ccc2c(c1)CCc1c(C(=O)NCc3ccc(F)cc3)noc1-2	?	>57
Cc1cccc(-n2c(=O)cc(N3CCN(c4ccc(F)cc4)CC3)[nH]c2=O)c1	-2%	>57
O=C(Cn1cc2c(n1)CCCC2)NCc1cccc(Cl)c1	15%	>57
Cc1cc(C)c(C(=O)CN2CCOCC2)c(C)c1	.	>57
COc1cccc(NC(=O)CNC(=O)c2ccc(F)cc2)c1	4%	>57
CCN1CCN(c2ccc(NC(=O)c3ccc4c(c3)OCO4)cc2)CC1	9%	>57
CCCC(=O)Nc1ccc(C(=O)O)cc1NC(=O)CCC	-6%	>57
CN(c1ccccc1C(=O)N1CCN(c2cccc(Cl)c2)CC1)S(C)(=O)=O	-19%	>57
COCCOC(=O)C1=C(C)NC(=O)N(C(C)=O)C1c1ccc(Cl)cc1 (centres undefined)	?	>57
CCCOc1ccc(C(=O)NCc2ccco2)cc1	-8%	.
CC(C)n1c(C(O)c2ccc3c(c2)OCO3)nc2ccccc21 (centres undefined)	-5%	.
Cc1noc(C)c1CSCC(=O)OCc1nc2ccccc2c(=O)n1CC#N	?	>57
COC(=O)C(C)Sc1nc2c(c(=O)[nH]c(=O)n2C)n1CCC(C)C (centres undefined)	?	>57
CC1CCN(CCn2c(=S)[nH]c3ncccc3c2=O)CC1	7%	>57
CC(c1ccccc1)C1NC(C(=O)O)CS1 (centres undefined)	3%	>57
COC(=O)N1CCC[C@@]2(CCN(Cc3cc(C(F)(F)F)cc(C(F)(F)F)c3)C2)C1	11%	>57
CCCCCC(=O)O[C@H](CC(=O)O)C[N+](C)(C)C	1%	>57
CCOc1ccc(Br)c(C2(O)CC(C)N(C)CC2C)c1 (centres undefined)	.	>57
O=c1cnc2cnc(Nc3ccccc3)nc2n1C1CC1	-4%	>57
CCOc1cc(C(=O)N2CCCC2)cc(OCC)c1OCC	-1%	>57
O=C1CC(N2CCCCCC2)C(=O)N1c1ccc2c(c1)OCO2 (centres undefined)	-11%	>57
CCc1ccc2oc(-c3cc(N)ccc3Cl)nc2c1	?	>57
CC1CCCCC1NC(=O)CC1Oc2ccccc2NC1=O (centres undefined)	-8%	>57
CCOCC(=O)Nc1nnc(SCCOC)s1	3%	>57
CCc1nc2oc3ccccc3c(=O)c2c(=O)n1Cc1ccccc1	5%	>57
CC(C)(C)NC(=O)CN(C(=O)CCN1CCCc2ccccc21)C(C)(C)C	-1%	>57
O=C(CCSc1nnc(-c2ccco2)o1)Nc1ccccc1	-6%	>57
CCC(Sc1nc(N)cc(=O)[nH]1)C(=O)NC(C(=O)OC)c1ccccc1 (centres undefined)	-2%	>57
Cc1cc(C)cc(N(CC(=O)NC2CC3CCC2C3)S(C)(=O)=O)c1 (centres undefined)	-13%	?
C=C(C)CN(CC)c1nc(N)c(C#N)c(CC#N)c1C#N	?	>57
COc1ccc(CN(C(=O)c2ccco2)C2CC(C)N(C)CC2C)cc1 (centres undefined)	6%	>57
CC(C)N(C(=O)COC(=O)c1ccc(O)cc1)C(C)C	?	>57
COc1ccc(OC)c(S(=O)(=O)Nc2cc(Cl)cc(Cl)c2)c1	-10%	>57
COCc1nnc(NC(=O)c2cc(Cl)ccc2OC)s1	-2%	>57
COC(=O)c1cc(NCc2ccc3c(c2)OCO3)ccc1N1CCOCC1	-8%	>57
Cc1ccc(OCc2nc(C#N)c(N3CCN(Cc4ccccc4)CC3)o2)cc1	.	>57

A portion from the list above, as a working copy:
SMILES	LT uptake inh	SmPrx2 inh
CCCCCC(=O)O[C@H](CC(=O)O)C[N+](C)(C)C	1%	>57
CCOc1ccc(Br)c(C2(O)CC(C)N(C)CC2C)c1 (centres undefined)	.	>57
O=c1cnc2cnc(Nc3ccccc3)nc2n1C1CC1	-4%	>57
CCOc1cc(C(=O)N2CCCC2)cc(OCC)c1OCC	-1%	>57
O=C1CC(N2CCCCCC2)C(=O)N1c1ccc2c(c1)OCO2 (centres undefined)	-11%	>57

Following part.
SMILES	LT uptake inh	SmPrx2 inh
Cc1ccn2cc(CNC(=O)c3ccc(Br)o3)nc2c1	23%	>57
CCSc1nnc(NC(=O)C2Cc3ccccc3CN2C(=O)c2ccco2)s1 (centres undefined)	?	>57
O=C(Nc1ccc(-c2nc3cccnc3s2)cc1)c1ccco1	-6%	>57
CC(=O)SC[C@@H](Cc1ccccc1)C(=O)NCC(=O)OCc1ccccc1	0%[3.58 µM]	>57
CC1(C)Cc2c(C#N)c(N)sc(=S)c2CO1	-19%	>57
Cc1ccc(C)c(-n2nnnc2SCC(=O)c2ccc3c(c2)NC(=O)CO3)c1	6%	>57
CC(SC1CCCC1)C(=O)Nc1ccnn1C(C)C (centres undefined)	-1%	>57
O=C(Nc1ccccn1)c1ccc(NC(=O)c2ccco2)cc1	?	>57
CCOc1ccc(Cl)cc1S(=O)(=O)N1CCCC1	-6%	>57
Cc1ccc(Cl)cc1-n1c(=O)cc(N2CC(C)OC(C)C2)[nH]c1=O (centres undefined)	-11%	>57
Cc1ccc(/C(COc2ccccc2O)=N\O)cc1	-14%	>57
COc1ccc2c(c1)Cc1sc(NC(C)=O)nc1-2	-17%	>57
O=C(N1CCCCC1)N1CCN(c2ccc(Cl)cc2)CC1	-14%	>57
CCC(C)(C)n1nnnc1C(c1ccc2ncccc2c1)N1CCN2CCCC2C1 (centres undefined)	-4%	>57
CC(=O)O[C@H](CC(=O)O)C[N+](C)(C)C	-13%	>57
COc1cc(CN(C)CCc2ccccn2)cc(OC)c1OC	-15%	>57
Cc1nc(C)c(C(=O)C2=C(O)C(=O)N(CCN3CCOCC3)C2c2cccnc2)s1 (centres undefined)	2%	>57
Cc1cc(C)n(-c2cc(=O)n(C)c(=O)n2C)n1	-2%	>57
COc1ccc(OC)c(-c2oc3ccccc3c(=O)c2O)c1	-3%	>57
CNc1nc(-c2cccc(NS(C)(=O)=O)c2)nc2ccccc12	4%	>57
COC(=O)[C@H]1[C@@H]2C[C@H]3c4[nH]c5ccccc5c4CCN3C[C@@H]2CC[C@@H]1O	-7%	>57
CCOc1cccc(CN2CCN(c3cccc(C(F)(F)F)c3)CC2)c1O	-6%	>57
COc1ccc(CNc2oc(Cc3cccc4ccccc34)nc2C#N)cc1	.	>57
COc1cccc(C(=O)NCc2nnc(SCC(=O)Nc3nccs3)n2-c2ccccc2)c1	11%	>57
C#CCN1CC(C)/C(=N/O)CC1C (centres undefined)	14%	>57
NC(=O)c1c(NC(=O)c2cc3ccccc3o2)sc2c1CCC2	?	>57
Cc1oc2c(CN3CCCC3)c(O)ccc2c(=O)c1-c1ccc(Cl)cc1	.	>57
CCC(Oc1ccccc1)C(=O)N1CCN(c2ccccn2)CC1 (centres undefined)	-10%	>57
CCOC(=O)CCc1c(C)c2ccc(OCc3nn[nH]n3)c(C)c2oc1=O	7%	>57
COc1ccc(C2C(C#N)=C(C)NC3=C2C(=O)CC(C)(C)C3)c(OC)c1 (centres undefined)	?	.
COc1ccccc1C(=O)N1CCCC(c2nc(-c3cc(OC)c(OC)c(OC)c3)no2)C1 (centres undefined)	-1%	>57
COc1cc(OC)cc(C(=O)N(Cc2nc(-c3cccc(C)c3)no2)C(C)C)c1	?	?
O=C1c2ccccc2C(=O)N1CC#CCN1CCN(C2CCCCC2)CC1	-26%	>57
CCCCn1nnnc1NCc1cccnc1	-3%	>57
COCC(=O)N1CCC2(CC1)CCN(c1ncccn1)CC2	1%	>57
O=C(NCc1ccc(F)cc1)N[C@@H](Cc1ccccc1)C(=O)O	3%	>57
O=c1c2ccccc2n2nnnc2n1-c1ccccc1	-6%	>57
CC(C)c1ccc(C(=O)N2CCN(CCO)CC2)cc1	3%	>57
O=C(CSc1nc(N2CCCCC2)nc(N2CCCCC2)n1)N1CCN(c2ccccc2)CC1	-6%	>57
CN(CP(=O)(O)C(O)c1ccccc1)S(C)(=O)=O (centres undefined)	0%	.
CC1CN(C(=O)c2cc(S(=O)(=O)N3CCCC3)c(Cl)cc2Cl)CC(C)O1 (centres undefined)	-3%	>57
CCOC(=O)N1CCN(C(=O)c2cn(CC(C)C)c(=O)c3c2c2ccccc2n3C)CC1	10%	>57
O=C(NCCC[N+]1=CC=N[C@H]1c1ccccc1)N1CCCc2nc(-c3ccc(Br)cc3)ccc21	-11%[8 µM]	.
O=c1cc(-c2ccccc2O)oc2c(O)c(O)ccc12	?	?
COc1cccc2cc(C(=O)C3=C(O)C(=O)N(CCN4CCOCC4)C3c3cccs3)oc12 (centres undefined)	?	>57
CCOC(=O)CC(SP(=S)(OC)OC)C(=O)OCC (centres undefined)	?	.
C/C=C/c1ccc(Oc2nnnn2-c2ccc(C(=O)O)cc2)c(OC)c1	17%	>57
CCCCc1cc(=O)oc2c(CN(C)C)c(O)ccc12	?	.
O=C(Nc1nn[nH]n1)c1nc(-c2ccccc2)cc(=O)[nH]1	2%[8 µM]	>57
O=C(CN1CCC(C(=O)c2ccc(Cl)cc2)CC1)Nc1ccc2c(c1)OCCO2	-4%	>57
CCOC(=O)c1csc(NC(=O)C2CCCCC2)n1	-2%	>57
O=C(c1ccc(O)cc1)c1ccc(Cl)cc1	-17%	.
Cc1nc2c(-c3ccccc3)c(C)[nH]n2c(=O)c1Cl	26%	>57
O=C(c1nn2c(C(F)(F)F)cc(-c3ccc(F)cc3)nc2c1Cl)N1CCOCC1	-19%	.
CCOC(=O)C1=C(C)NC(=O)NC1c1cc(Br)c(O)c(OC)c1 (centres undefined)	15%	>57
Cc1ccc(S(=O)(=O)c2nc(-c3ccccc3)oc2NCc2cccnc2)cc1	?	>57
CCN(CC)S(=O)(=O)c1cccc(-c2nnc(SCc3nnc(-c4cccs4)o3)n2N)c1	?	>57
Cc1oc(C(=O)O)cc1COc1ccc2c(C)cc(=O)oc2c1	-17%	>57
O=C(O)CSCC(=O)Nc1cccc2ccccc12	2%	>57
O=S(=O)(c1ccccc1)N(C1=NCCS1)S(=O)(=O)c1ccccc1	-1%	>57

(listing goes on)
SMILES	LT uptake inh	SmPrx2 inh
O=C(CCCn1c(=O)[nH]c2cc(Cl)ccc2c1=O)NCCCN1CCCC1=O	3%	>57
Cc1cc(C(F)(F)F)c2c(N)c(C(=O)Nc3cc(C)on3)sc2n1	11%	>57
CCCCC(=O)Nc1cccc(NC(=O)c2ccc3c(c2)OCO3)c1	-5%	>57
Cc1ccc(-n2cnc3c(sc4nccc(N(C)C)c43)c2=O)cc1	6.3µM*	.
O=C(CCCN1C(=O)c2ccccc2C1=O)NC1=NCCS1	-6%	>57
CCn1c(=O)c2[nH]c(-c3ccccc3)nc2n(CC)c1=O	2%	>57
Cc1ccc(CN2CCN(CC(=O)N3CCc4ccccc4C3)C2=O)cc1	?	>57
Cc1c(C(=O)NCc2cccnc2)sc2ncn(CC(=O)N3CCCCC3C)c(=O)c12 (centres undefined)	27%	>57
Cc1ccc(C(=O)N2CCOCC2)cc1S(=O)(=O)Nc1cccc(C)c1C	-2%	>57
CCNc1ncc2nc(-c3ccc(Cl)cc3)c(=O)n(Cc3cccc(OC)c3)c2n1	?	>57
C(=N\n1cnnc1)/c1ccc2c(c1)OCO2	16%	>57
CSc1nnc([C@@H](N)Cc2ccccc2)o1	-17%	>57
CCn1c(SCC(=O)N2CCC(C(N)=O)(N3CCCCC3)CC2)nnc1-c1ccccc1	-8%	>57
O=C1CC(Nc2ccc(N3CCOCC3)cc2)C(=O)N1C1CCCCC1 (centres undefined)	-2%	>57
Cc1ccc2[nH]c(-c3cccc(N)c3)cc2c1	?	>57
COc1ccc(N2CCC(CNC(=O)Nc3ccc(C)c(C)c3)C2)cc1 (centres undefined)	?	>57
CCOC(=O)N1CCN(S(=O)(=O)c2ccc(C)cc2)C1c1ccc(OC)cc1 (centres undefined)	-28%	>57
COc1ccc2c3c([nH]c2c1)[C@@H]1C[C@@H]2[C@@H](C[C@H](O)[C@H](OC)[C@H]2C(=O)O)CN1CC3	-6%[3.58 µM]	>57
COc1cc(OC)c(C2C(C(=O)O)c3ccccc3C(=O)N2C)cc1OC (centres undefined)	10%	>57
O=C(CCCOc1ccc(Cl)cc1Cl)N1CCC2(CC1)OCCO2	-3%	>57
O=C(O)[C@H]([C@H]1NCCS1)N1C(=O)c2ccccc2C1=O	-2%[8 µM]	>57
c1ccc(-n2nnnc2SCc2cccc3nsnc23)cc1	-24%	>57

Complete entries as entered above. Order of values: LT uptake inh | SmPrx2 inh
O=C(CCCOc1ccc(Cl)cc1Cl)N1CCC2(CC1)OCCO2 is listed as -3% | >57
COc1cc(OC)c(C2C(C(=O)O)c3ccccc3C(=O)N2C)cc1OC (centres undefined) is listed as 10% | >57
O=C1CC(Nc2ccc(N3CCOCC3)cc2)C(=O)N1C1CCCCC1 (centres undefined) is listed as -2% | >57
CCCCC(=O)Nc1cccc(NC(=O)c2ccc3c(c2)OCO3)c1 is listed as -5% | >57
Cc1ccc(-n2cnc3c(sc4nccc(N(C)C)c43)c2=O)cc1 is listed as 6.3µM* | .
